# Assay outcomes from PubChem BioAssay.
# HSD17B inhib – HSD17B dehydrogenase inhibition. Q99714. recombinant HSD17B10, NADH fluorescence kinetic; many of its hits are not listed in these tables. Potency, µM (top dose mostly 57.1 µM), without a hit: at the highest dose activity change, negative = inhibition, actives largely listed as inhibitors. 75,000 tested, 7.6% active. AID 893; active = well fitted inhibition curve with a large enough effect; inconclusive = small, poorly fitted or top-dose-only effect; inactive = no such curve, though single readings can be large or run the other way;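 also: the protocol describes HADH2 (HSD17B10) and not the HSD17B4 of the title; nearly all actives have a fitted effect of over 70% in size; most hits overshoot -100% by far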
#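 Enzyme plus compound, 15 min room temperature; substrate mix added (NAD+ 1 mM, beta-hydroxybutyryl-CoA 90 uM final); plates read kinetically for NADH fluorescence. HADH2 was His-tagged, E. coli-derived, 20 nM.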
# An asterisk follows results filed as active; u = inconclusive; & = joins results of further samples; [ ] = remark or other dose. % is scaled to controls: 0 for no effect and ±100 for the full control effect; potency is read from the fitted curve at half-maximal effect. The list is partial; the hit share may differ from the screen's.
SMILES,HSD17B inhib
CCC(C)[C@H](N)c1nnc(SCC(=O)Nc2cccc(Cl)c2)o1 (stereo partly specified),3%
Cc1ccccc1Nc1nc(N)nc(CSc2nnc3sc4ccccc4n23)n1,5%
Cc1nnc(SCc2ccon2)n1-c1ccccc1,13%
CC(=O)OC(Cn1nc(C)cc1C)c1ccccc1 (stereo unspecified),-4%
COc1ccc(-c2cc(-c3cc(F)ccc3O)[nH]n2)cc1OC,-18%
NC[C@@H]1O[C@H](C23CC4CC(CC(C4)C2)C3)Cc2c1ccc(O)c2O,-11%&-5%
COc1ccc2nc(N)sc2c1,5%
CCN1CCN(CCNC(=O)c2cn(Cc3ccccc3F)nn2)CC1,4%
O=S(=O)(Nc1ccc(O)c(CN2CCCCC2)c1)c1ccccc1,0%
COc1cc2oc(-c3ccccc3)cc(=O)c2cc1OC,25µM*
CCOc1ccc(N(CC(=O)NCc2ccccc2)S(C)(=O)=O)cc1,5%
CCCOc1ccc(NC(=O)C2CC(=O)N(C(C)C)C2)cc1 (stereo unspecified),-1%
COc1ccccc1NC(=O)CSc1nnc(-c2ccco2)o1,-4%
O=C1NCCN1C(=O)N(c1ccccc1)c1ccccc1,2%
COc1ccccc1NC(=O)COc1ccc(/C=N/n2cnnc2)cc1OC,u
COc1cc(C2/C(=C(\O)c3ccc4c(c3)CC(C)O4)C(=O)C(=O)N2CCCn2ccnc2)ccc1O (stereo unspecified),2%
COc1ccccc1Nc1cc(C(=O)NCCCN2CCOCC2)c2ccccc2n1,5%
CCC(C)NC(=O)C(Cc1ccccc1)NS(=O)(=O)c1cccc2nsnc12 (stereo unspecified),-3%
CCOC(=O)c1c(C)oc2cc(Br)c(OC(=O)N3CCOCC3)cc12,4%
O=C(CSc1nnnn1C1CCCCC1)NCc1cccc(C(=O)O)c1,5%
Cc1cc(N=Cc2c(O)ccc3ccccc23)no1,-20%
CC(C)(C)n1nnnc1C(c1ccncc1)N1CCN(C2CCCCC2)CC1 (stereo unspecified),5%
COc1ccc(NC(=O)Nc2ccccc2C(=O)N2CCCC2)cc1,2%
c1ccc(CNn2c(N3CCOCC3)nc3ccccc32)cc1,4%
COc1ccc(S(=O)(=O)Nc2ccc(S(=O)(=O)N3CCCCC3)cc2)cc1,3%

# The closing 4 compounds of the part before open the next one:
SMILES,HSD17B inhib
CC(C)(C)n1nnnc1C(c1ccncc1)N1CCN(C2CCCCC2)CC1 (stereo unspecified),5%
COc1ccc(NC(=O)Nc2ccccc2C(=O)N2CCCC2)cc1,2%
c1ccc(CNn2c(N3CCOCC3)nc3ccccc32)cc1,4%
COc1ccc(S(=O)(=O)Nc2ccc(S(=O)(=O)N3CCCCC3)cc2)cc1,3%
C=C1C(=O)C=C2CN(C(=O)c3ccccc3)[C@@](Cc3ccc(OC)cc3)(C(=O)OC)[C@@H]12,10µM*
Cc1onc(-c2c(F)cccc2Cl)c1C(=O)NCc1ccco1,0%
Cc1nn(-c2ccccc2)c2c1C1(C(=O)Nc3ccccc31)N1C(=N2)Sc2ccccc21 (stereo unspecified),-8%
CSc1cccc(-n2c(C)cc(C(N)=O)c2C)c1,7%
COc1ccc(Br)cc1CNC(=O)CCN1C(=O)COc2ccccc21,1%
CS(=O)(=O)N1CCCC(C(=O)N2CCc3ccccc3C2)C1 (stereo unspecified),2%
O=C(O)CNCCc1ccccc1,5%[11.4 µM]
CCSC(N)=Nc1ccc(C(F)(F)F)cc1,-6%
COc1ccc(OC)c(C(C(=O)NCc2ccco2)N(C(=O)Cn2nnc3ccccc32)C2CC2)c1 (stereo unspecified),3%
CCCCOC(=O)Sc1nc2ccccc2o1,-6%
S=c1nc(C2CCCCC2)[nH][nH]1,-8%
Cc1cc(S(=O)(=O)Nc2ccccc2C)ccc1F,1%
CN1CCN(c2ncc3ncc(=O)n(C[C@H]4CCCO4)c3n2)CC1,32µM*
CC1(C)OC(=O)N(c2cccnc2)C1(C)O (stereo unspecified),1%
CCC(=O)Nc1nc(C)c(C(=O)N2CCCCC2)s1,5%
Cc1ccc(NC(=O)CN2CCC3(O)CCCCC3C2c2ccc3c(c2)OCO3)c(C)c1 (stereo unspecified),7%
Cc1cc(C(=O)COC(=O)C2COc3ccccc3O2)c(C)n1CC1CCCO1 (stereo unspecified),11%
O=C(O)C1CCC(=O)N1Cc1ccccc1Cl (stereo unspecified),-1%
CCc1ccccc1NC(=O)CSc1nc2ccccc2n1CC(=O)N(C)C,5%
CC(=O)NC(CC(=O)O)C(=O)NC(CCC(=O)O)C(=O)O (stereo unspecified),5%
COc1ccc(CNc2ccnc(-c3cccc(C#N)c3)n2)c(OC)c1,-11%
CCOc1cc(CO)ccc1OCC(=O)N1CCCCC1,5%
CC(C)CCNC(=O)NC(=O)COc1ccccc1C#N,1%
COc1cc(C(=O)N2CCN(Cc3ccccc3C(F)(F)F)CC2)cc(OC)c1OC,-4%
Cc1ccsc1C(=O)OCC(=O)Nc1sccc1C(N)=O,-9%

# A different layout for 2 compounds above.
COc1ccc(CNc2ccnc(-c3cccc(C#N)c3)n2)c(OC)c1
  HSD17B inhib = -11%
O=C(O)C1CCC(=O)N1Cc1ccccc1Cl (stereo unspecified)
  HSD17B inhib = -1%

# (further entries)
SMILES,HSD17B inhib
CC1CCCN(c2nc3c(c(=O)[nH]c(=O)n3C)n2Cc2ccccc2Cl)C1 (stereo unspecified),20µM*
COc1ccc(NCc2nnc(SCC(=O)N3CCCc4ccccc43)o2)cc1,-6%
CN(C)CCCN1C(=O)C(=O)/C(=C(/O)c2ccncc2)C1c1ccccc1 (stereo unspecified),-3%
Cc1ccc(S(=O)(=O)CCc2nnc(NC(=O)C3CCCO3)s2)cc1 (stereo unspecified),2%
Cc1noc(C(=O)NCc2ccco2)c1Cl,-1%
COc1ccc(S(=O)(=O)N2CCCC(C(=O)NCc3ccco3)C2)cc1Cl (stereo unspecified),-3%
O=C1[C@H]2[C@H]3[C@H](O)[C@H](O)C/C(=N/OC[C@@H](O)COCc4ccco4)[C@@H]3CC[C@@H]2C(=O)N1C1CCCCC1,0%[11.4 µM]
COC(=O)[C@H](C)NC(=O)NCc1ccc(F)cc1,1%
COc1ccc(CC(=O)Nc2c3c(nn2-c2cccc(Cl)c2)CS(=O)(=O)C3)cc1,-18%
COCCn1c(NCc2ccc(C)cc2)nc2c1c(=O)[nH]c(=O)n2C,12%
Cc1c(C(=O)NCc2ccccn2)sc2nc(-c3ccc(F)cc3)cn12,-2%
CC1(C)CN=C(N2CCN(C3=NCC(C)(C)S3)CC2)S1,5%
CNc1oc(-c2ccc(OCc3ccccc3)cc2)nc1C#N,7.9µM*
COC(=O)[C@@H](NC(=O)Nc1ccc(OC)cc1)C(C)C,3%
COc1ccc(-n2nnnc2SC(C)C(N)=O)cc1 (stereo unspecified),19%
CC(Sc1nnc(-c2ccc(O)cc2)o1)C(=O)Nc1cccc2ccccc12 (stereo unspecified),-1%
CC(C)CC(=O)CN1C(=O)C2(OCCO2)c2ccccc21,1%
COc1ccc2[nH]cc(CCNc3cc(-c4ccccc4C)ncn3)c2c1,-5%
CCCC[C@@H]1C[C@H]1C(NC(=O)c1ccccc1)c1ccccc1 (stereo partly specified),-3%
COc1ccccc1NC(=O)N(CCN(C)C)Cc1cc2cc(C)ccc2[nH]c1=O,-14%
CC(C)COC[C@H](CN(Cc1ccccc1)c1ccccc1)N1CCCC1,-3%[25.6 µM]
C/C(NC1CCCC1)=C(/C#N)C(N)=O,1%
CC1=C(n2nnc3ccccc32)C(c2ccccc2)C(C#N)=C(N)O1 (stereo unspecified),-20%
CCCCCCn1c(CN2CCN(Cc3ccccc3)CC2)nc2c1c(=O)n(C)c(=O)n2C,3%
CCOC(=O)N1CCN(C(c2ccc(F)cc2)c2sc3nc(C)nn3c2O)CC1 (stereo unspecified),15%

# Next structures:
SMILES,HSD17B inhib
C=CCn1c2ccccc2c2nnc(SC(CC)C(=O)Nc3nc(C)c(C(=O)OCC)s3)nc21 (stereo unspecified),7%
Cc1cccc(NC(=O)c2cc(S(=O)(=O)NCc3ccco3)ccc2F)c1C,4%
CCOC(=O)C1(Cc2ccc(O)cc2)NC(c2ccccc2F)C2C(=O)N(C)C(=O)C21 (stereo unspecified),-4%
Cc1ccc(NC(=O)CSc2nccc(=O)[nH]2)c(S(=O)(=O)N2CCOCC2)c1,-12%
CS(=O)(=O)c1ncc(Cl)c(C(=O)Nc2ccc(N3CCOCC3)cc2)n1,-4%
O=C(Oc1ccc(-c2cn3c(n2)SCC3)cc1)c1ccccc1,u
CC1=C(C(N)=O)C(c2ccc(Cl)cc2)NC(=O)N1 (stereo unspecified),-2%
C=CCn1nnnc1SCC(=O)Nc1ccccc1C(=O)OC,4%
O=C(NCc1cccs1)C1CCN(S(=O)(=O)c2ccc3c(c2)OCCO3)CC1,12%
CN(C)CCNc1nc2c(c(=O)[nH]c(=O)n2C)n1CC(O)COc1ccc(Cl)cc1Cl (stereo unspecified),2%
COCCCNC(=O)c1ccc(Cn2c(=O)[nH]c3ccccc3c2=O)cc1,-12%
c1coc(CNc2nc(N3CCCCC3)nc3ccccc23)c1,32µM*
CC(=O)NCCc1c(Cc2ccccc2)[nH]c2ccccc12,-21%
COc1ccc(OC)c(C2C3=C(N=C4SCC(=O)N42)c2ccccc2CC3)c1 (stereo unspecified),-14%
O=C(O)C1C2C=CC(C2)C1C(=O)OCC1CCCO1 (stereo unspecified),-2%
COc1c(O)c(O)cc2c1oc1c3ccccc3oc(=O)c21,u
CCOc1nc(NCCC2=CCCCC2)nc(N2CCOCC2)n1,8%
CC/C(C)=N/O,4%
CCc1ccc(-c2nc(CSCC(=O)NCCCN3CCCC3=O)c(C)o2)cc1,-16%
COc1ccc(N(CC(=O)NC2CCCC2)C(=O)c2ccc(N3CCCCC3)nc2)cc1,32µM*
Cc1cccc(-c2cc(=O)c3cc(C)ccc3o2)c1,32µM*
COc1cccc(Cn2c(=O)c(CCc3ccccc3)nc3cncnc32)c1,-4%
Cc1sc2ncnc(NCc3ccco3)c2c1C,-17%
CC1(C)CC(=O)C2=C(C1)NCN(Cc1ccc3c(c1)OCO3)C2,14%
CCCNC(=O)C1CN(S(=O)(=O)c2ccccc2)CCN1S(=O)(=O)c1ccccc1 (stereo unspecified),-2%

# Shown as tab-separated lines: entries from further up.
SMILES	HSD17B inhib
CCOC(=O)C1(Cc2ccc(O)cc2)NC(c2ccccc2F)C2C(=O)N(C)C(=O)C21 (stereo unspecified)	-4%
Cc1ccc(NC(=O)CSc2nccc(=O)[nH]2)c(S(=O)(=O)N2CCOCC2)c1	-12%
CS(=O)(=O)c1ncc(Cl)c(C(=O)Nc2ccc(N3CCOCC3)cc2)n1	-4%
O=C(Oc1ccc(-c2cn3c(n2)SCC3)cc1)c1ccccc1	u
CC1=C(C(N)=O)C(c2ccc(Cl)cc2)NC(=O)N1 (stereo unspecified)	-2%

# Next part:
SMILES,HSD17B inhib
C=CCn1c(SCC(=O)NC(=O)NCc2ccco2)nc2sc(CC)cc2c1=O,-16%
O=C(O)c1cc2cc(Cl)ccc2oc1=O,-1%
O=C(C1CCCO1)N1CCN(S(=O)(=O)c2cccc3nsnc23)CC1 (stereo unspecified),-4%
COc1ncc2nc(CCc3ccccc3)c(=O)n(Cc3cccs3)c2n1,1%
CCC(=O)N1c2ccccc2NC2=C(C(=O)CCC2)C1c1ccc(N(C)C)cc1 (stereo unspecified),-11%
COCCNC(=O)c1nn(-c2cc(OC)cc(OC)c2)c(=O)c2ccccc12,15%
OC[C@@H](O)[C@@H](O)[C@@H](O)[C@@H](O)c1nc2ccc(Cl)cc2[nH]1,7%[11.4 µM]
COc1ccc(-c2cc(=O)[nH]c(NCc3ccccc3)n2)cc1,u
CN(C)c1ccc(C2N([C@H](C#N)c3ccc(N(C)C)cc3)CCCN2[C@@H](C#N)c2ccc(N(C)C)cc2)cc1 (stereo partly specified),-2%[11.4 µM]
CCOCCOc1nc2c(c(=O)n(C)c(=O)n2C)n1CCc1ccccc1,-7%
CCOc1ccc(Nc2cc(=O)n(C)c(=O)n2C)cc1,2%
CCN1C(=O)C(C)S/C1=N\S(=O)(=O)c1ccc(Cl)s1 (stereo unspecified),0%
Cn1c(=O)c2c(ncn2CCCNC2=CC(C)(C)CC(=O)C2)n(C)c1=O,16%
Cc1cccc(NC(=O)CSc2nnc(-c3ccccc3C)o2)c1,9%
COC(=O)[C@@]1(Cc2ccc(OC)cc2)[C@H]2c3cc(C(=O)N4CCCC4)n(CCSCCO)c3C[C@H]2CN1C(=O)c1ccccc1,0%
Cc1ccnc(-n2sc3ccccc3c2=O)n1,3.2µM*
CCOC(=O)C1CCCN(C2CC(=O)N(c3ccc(C)c(C)c3)C2=O)C1 (stereo unspecified),-8%
COc1nc(OC)nc(N(C)CCO)n1,9%
COc1ccc(C(=O)Cn2c(=O)c(CCC(=O)O)nn3c4ccccc4nc23)cc1OC,u
COc1ccc2c(c1OC)C(=O)OC2CC(=O)c1ccc(N(C)C)cc1 (stereo unspecified),-7%
Cc1nnc(SCC(=O)Nc2ccc(Br)cn2)[nH]c1=O,-3%
c1ccc(N2CCN(Cc3nnnn3C3CCCCC3)CC2)cc1,1%
Cc1nc2nc(SCC(=O)C(C)(C)C)[nH]c2cc1Br,1%
COc1ccc(S(=O)(=O)Nc2cc(C(=O)NC3CCCCCC3)ccc2N2CCOCC2)cc1,-15%
Cc1ccc(C)c(N2CCN(S(=O)(=O)c3ccc4c(c3)oc(=O)n4C)CC2)c1,-5%
N#CCSc1nc2c(sc(=S)n2Cc2ccco2)c(=O)n1-c1ccc(F)cc1,-6%
COc1ccc(C(=O)N2CCC3(CC2)CN(c2ncccn2)C3)cc1,32µM*
OC1(c2cn(Cc3ccccc3)nn2)CCCCC1,7%
CCN1CCn2c1nc(N1CCCCC1)nc2=O,5%

# A few values from the entries so far:
# CC(Sc1nnc(-c2ccc(O)cc2)o1)C(=O)Nc1cccc2ccccc12 (stereo unspecified) – HSD17B inhib: -1%
# COCCNC(=O)c1nn(-c2cc(OC)cc(OC)c2)c(=O)c2ccccc12 – HSD17B inhib: 15%
# CCN1CCn2c1nc(N1CCCCC1)nc2=O – HSD17B inhib: 5%
